Screening data: PubChem BioAssay, National Center for Advancing Translational Sciences (NCATS)
HSD17B inhib: inhibitors of human HSD17B10 dehydrogenase | recombinant HSD17B10, NADH fluorescence kinetic; many of its hits are not listed in these tables | hit rate 7.6% among 75,000 | Potency, µM (doses to about 57.1 µM), without a hit: at the highest dose activity change, negative = inhibition, most hits filed as inhibitors; active means well fitted inhibition curve with a large enough effect; inconclusive means small, poorly fitted or top-dose-only effect; inactive means no such curve, though single readings can be large or run the other way;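 further: the protocol describes HADH2 (HSD17B10) and not the HSD17B4 of the title; nearly all actives have a fitted effect of over 70% in size; most hits overshoot -100% by far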
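His-tagged E. coli-expressed HADH2 at 20 nM in 100 mM Tris-HCl pH 9.0 with 0.01 % Tween-20, preincubated 15 min with compound at room temperature. Reaction with 1 mM NAD+ and 90 uM beta-hydroxybutyryl coenzyme A; NADH fluorescence (360/450 nm) read kinetically over 4 min, last minus first point.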
* hit, by the source's call; i = inactive; ? = inconclusive; [ ] = remark or other dose. On the % scale 0 is the no-effect control and ±100 the full control effect; potency means the concentration at half of the fitted maximal effect.

SMILES	HSD17B inhib
CCCCCCCCCCCCCCC(C(=O)O)C(O)(CC(=O)OC)C(=O)O (stereo not drawn)	?
Cc1ccc2c(c1)c1c(n2CC(O)Cn2nc(C)c(Br)c2C)C(=O)CCC1 (stereo not drawn)	?
Clc1ccc(CN2CCCN(Cc3ccc(Cl)cc3)C2c2cc3ccccc3c3ccccc23)cc1	4%[11.4 µM]
CCn1nnc(NC(=O)c2c(OC)cccc2OC)n1	7%
Clc1ccccc1CNc1ncnc2nc[nH]c12	2%
COc1cccc(NC(=O)N2CCCC2C(=O)NC(C)C)c1 (stereo not drawn)	1%
CCCC1(CCC)NC(=O)N(CC(=O)Nc2cccc(OC)c2)C1=O	4%
CCOC(=O)c1cc(NC(=O)c2c(C)noc2C)cc(C(=O)OCC)c1	-5%
Cc1ccc(C(C(=O)NC2CCCC2)N(Cc2ccc(F)cc2)C(=O)c2csnn2)o1 (stereo not drawn)	-3%
COC(=O)C1=C(C)N(Cc2ccco2)C(=O)C1	-28%
CCSC1=C(C#N)C(c2ccc(C)s2)CC(=O)N1 (stereo not drawn)	7%
NCCc1nc(-c2nc(C(=O)O)cs2)cs1	3%[11.4 µM]
Clc1cccc(-c2nn3c(-c4ccncc4)nnc3s2)c1	8%
Cc1ccc(S(=O)(=O)CC(c2ccccc2)N2CCOCC2)cc1 (stereo not drawn)	5%
CC(C)CO/N=C1/[C@H]2O[C@@H]2[C@@H](O)[C@H]2[C@H]1CCn1c(=O)n(C)c(=O)n12	1%[11.4 µM]
CCCCc1noc2c1/C(=N\O)CC(c1ccccc1)C2 (stereo not drawn)	2%
Cc1ccc(NC(=O)c2cccc(OCc3c(C)noc3C)c2)c(C)c1	8%
N#Cc1nc(Cc2cccc3ccccc23)oc1NCCCN1CCOCC1	6%
COc1ccc(-c2cc(=O)c3c(O)cc(O)c(-c4cc(-c5cc(=O)c6c(O)cc(O)cc6o5)ccc4OC)c3o2)cc1	?
N#Cc1c(NC(=O)CSc2nnnn2C2CCCC2)sc2c1CCCC2	-10%
O=C(O)C1CC=CCC1C(=O)Nc1ccc(S(=O)(=O)N2CCCc3ccccc32)cc1 (stereo not drawn)	5%
O=C(Nc1ccc(Cl)c(Cl)c1)c1ccncc1	-2%
O=C(CC1(O)C(=O)N(Cc2ccccc2)c2ccccc21)c1ccncc1 (stereo not drawn)	16µM*
O=C(CSc1ccc2nnc(-c3ccccc3)n2n1)NCc1ccco1	?
O=C(Nc1ccccn1)c1cc(-n2cnnc2)ccc1Cl	11%
CSc1nc(N)nc(SCCS(=O)(=O)c2ccc(Cl)cc2)c1C#N	-1%
O=c1[nH]c2c(s1)C(c1ccco1)C1C3CCC(C3)C1S2 (stereo not drawn)	25µM*
COCCN(C(=O)c1cccc(OC)c1)c1nnc(-c2ccncc2)s1	i
CCOC(=O)Cc1cc(=O)c2c(=O)n(-c3ccccc3)[nH]c2[nH]1	-12%
O=C(c1ccc(Cl)cc1)N1CCCCC(Sc2nnc(-c3ccc4c(c3)OCO4)o2)C1=O (stereo not drawn)	-10%

An excerpt of these results, bar-delimited:
canonical_smiles | HSD17B inhib
O=C(Nc1ccccn1)c1cc(-n2cnnc2)ccc1Cl | 11%
CSc1nc(N)nc(SCCS(=O)(=O)c2ccc(Cl)cc2)c1C#N | -1%
O=c1[nH]c2c(s1)C(c1ccco1)C1C3CCC(C3)C1S2 (stereo not drawn) | 25µM*
COCCN(C(=O)c1cccc(OC)c1)c1nnc(-c2ccncc2)s1 | i
CCOC(=O)Cc1cc(=O)c2c(=O)n(-c3ccccc3)[nH]c2[nH]1 | -12%
O=C(c1ccc(Cl)cc1)N1CCCCC(Sc2nnc(-c3ccc4c(c3)OCO4)o2)C1=O (stereo not drawn) | -10%

The listing continues.
SMILES	HSD17B inhib
COc1ccc(C(c2nnnn2CC2CCCO2)N2CCN(c3ccc(F)cc3)CC2)cc1 (stereo not drawn)	-5%
COc1ccc(CNc2ccnc(-c3ccc(C(=O)N(C)C)cc3)n2)c(OC)c1	3%
N#Cc1nc(Cc2ccccc2)oc1NCc1cccnc1	1%
O=S(N1CCCCCC1)C12CC3CC(CC(C3)C1)C2 (stereo not drawn)	-3%
CC1(C)CC(=O)NC=C(c2ccccc2)C1	-7%
Cc1cc(NC(=O)Nc2ccc3c(ccn3C)c2)sn1	-11%
O=C(NCc1ccco1)c1ccc2c(c1)C(=O)c1ccccc1-2	-9%
CCOc1ccc2cc(C#N)c(SCC(=O)OC)nc2c1	-141%
O=C1c2ccccc2C(O)N1CCN1CCOCC1 (stereo not drawn)	1%
O=C(Nc1cc(C(F)(F)F)ccc1N1CCOCC1)c1cccnc1	4%
Cc1cccc(C)c1NC(=O)CSCC(=O)O	9%
O=c1c2c3nc4ccccc4nc3n(/N=C/c3ccco3)c2ncn1CCC1=CCCCC1	?
COc1ccc(C2=NOC(C(=O)NCCN3CCOCC3)C2)cc1 (stereo not drawn)	7%
CCOc1cc(/C=N/n2cnnc2)ccc1OCC(=O)Nc1ccccc1OC	5%
CCc1ccc(NC(=O)CSc2nc3ccccc3c(=O)n2CCN2CCOCC2)cc1	-11%
O=C(NC1CCCCC1)NC1CC2CCC(C1)N2C(=O)NC1CCCCC1 (stereo not drawn)	-9%
Cc1ccc(NC(=O)N(Cc2cc3cc(C)cc(C)c3[nH]c2=O)CC2COCCO2)cc1 (stereo not drawn)	3%
CCn1c(COc2ccccc2C(N)=O)nc2ccccc21	-9%
Cc1cc(C)c2[nH]c(=O)c(C(c3nnnn3Cc3ccc4c(c3)OCO4)N3CCCC3)cc2c1 (stereo not drawn)	52%[activator]
COc1ccc(OC)c(NC(=O)C2CC(=O)N(c3ccc(Br)cc3)C2)c1 (stereo not drawn)	6%
COc1ccc(NC(=O)C2CCN(S(=O)(=O)c3cccnc3)CC2)cc1Cl	9%
O=C(OC1CCc2ccccc2C1=O)c1ccccc1O (stereo not drawn)	238%[activator]
COC(=O)c1ccc(CN(Cc2ccc(C(=O)OC)o2)C(C)(C)C)o1	-8%
O=C(c1cccs1)c1no[n+]([O-])c1C(=O)c1cccs1	-4%
Cn1c(C(=O)N2CCN(c3cccc(C(F)(F)F)c3)CC2)cc2sccc21	2%
Cc1cccc(C2Nc3ccccc3C(=O)N2c2ccccc2)n1 (stereo not drawn)	32µM*
COc1cccc(NC(=O)Cc2cccs2)c1	-3%
O=C(Nc1cccc(NC(=O)C2CC3CCCC(C2)C3=O)n1)C1CC2CCCC(C1)C2=O (stereo not drawn)	-9%
CCOC(=O)c1sc2ncn(/N=C/c3ccccn3)c(=O)c2c1C	7%
CSCCC(C(=O)O)N1C(=O)c2ccc(C(=O)O)cc2C1=O (stereo not drawn)	-3%
O=C(c1ccncc1)N1CCC[C@@]2(CCN(C(c3ccccc3)c3ccccc3)C2)C1	6%
COc1ccc(C2(C)NC(=O)N(Cc3cc(Cl)cc4c3OCOC4)C2=O)cc1OC (stereo not drawn)	4%
CN(C)C[C@@H](O)c1ccc(Cl)c2ccccc12	17%[11.4 µM]
COc1ccc(OC)c(C(C(=O)NCc2ccco2)N(C(=O)Cn2nnc3ccccc32)C(C)C)c1 (stereo not drawn)	0%
COC(=O)c1ccccc1NC(=O)c1ccc(COc2ccccc2)o1	?
O=C(c1cccs1)N1CCCC(c2nc(-c3ccc(F)cc3)no2)C1 (stereo not drawn)	1%
CCOC(=O)C1CCCCN1C(=O)CCc1c(C)nc2ncnn2c1C (stereo not drawn)	-6%
OC(CN1C2=NCCN2c2ccccc21)c1ccc(Br)cc1 (stereo not drawn)	-1%
COc1ccc(-c2cc(C(F)(F)F)nc(N3CCN(c4ccc(F)cc4)CC3)n2)cc1OC	-1%
CO[C@H]1COC(=O)[C@@H](CCSC)NC(=O)C/C=C\[C@@H](C)[C@H](OC)COC(=O)[C@@H](OCc2ccccc2)/C=C\[C@@H]1C	6%[11.4 µM]
C=CCN1C(=O)C2C(C(=O)NCc3ccccc3)C3C=CC2(O3)C1C(=O)NC(C)(C)C (stereo not drawn)	-3%
CS(=O)(=O)N1CCCC(C(=O)NCc2ccccc2Cl)C1 (stereo not drawn)	-3%
CCn1c(SCC(=O)N2CCc3ccccc32)nnc1-c1ccncc1	-1%
Cc1cc(Oc2ccc(=O)n(C)n2)nc(Oc2ccc(=O)n(C)n2)n1	6%
Cc1ccccc1OCCC(=O)Nc1c(C)n(C)n(-c2ccccc2)c1=O	10%

Four entries out of the list, arranged by length of the SMILES, falling:
SMILES	HSD17B inhib
COc1ccc(-c2cc(C(F)(F)F)nc(N3CCN(c4ccc(F)cc4)CC3)n2)cc1OC	-1%
COc1ccc(C2(C)NC(=O)N(Cc3cc(Cl)cc4c3OCOC4)C2=O)cc1OC (stereo not drawn)	4%
CCOC(=O)C1CCCCN1C(=O)CCc1c(C)nc2ncnn2c1C (stereo not drawn)	-6%
OC(CN1C2=NCCN2c2ccccc21)c1ccc(Br)cc1 (stereo not drawn)	-1%

(next part)
SMILES	HSD17B inhib
Cc1nn2c(-c3ccc(Cl)cc3Cl)nnc2s1	4%
CC(C)C=O	1%
CCn1c(SCC(=O)OC2CCCCC2)nc2ccccc2c1=O	11%
CCOc1ccccc1NC(=O)N1CCC(c2nc3ccccc3[nH]2)CC1	-1%
Cc1ccc(S(=O)(=O)N2CCC(C(=O)Nc3ccc4c(c3)COC4=O)CC2)cc1	9%
CC(C)(C)C(=O)Cn1c[n+](N)cn1	1%
CSc1nc(-c2ccccc2)nc2c1COC(C)(C)C2	5%
COCCn1c(=O)c(-c2cc(F)cc(F)c2)nc2cnc(Oc3ccc(OC)cc3)nc21	-18%
Cc1[nH]nc2c1C(c1ccc3c(c1)OCO3)C(C#N)=C(N)O2 (stereo not drawn)	1%
CNC(=O)c1ccccc1NC(=O)c1cccc(S(=O)(=O)N2CCC(C)CC2)c1	?
C[C@@]12CCC(O)C[C@H]1CCc1ccccc12 (stereo partly drawn)	1%
CC1CCCC(C)N1C(=O)Cn1c(=O)sc2ccccc21 (stereo not drawn)	2%
CCn1c(SC)nnc1-c1sc2cc(Cl)ccc2c1Cl	-6%
C=C(C)CN1C(=O)C(O)(CC(=O)c2ccc3c(c2)OCCO3)c2ccccc21 (stereo not drawn)	1%
CC(=O)OC1CCC2(C)C3CC(=O)C4(C)C(CC5OC6(CCC(C)CO6)C(C)C54)C3CC[C@H]2C1 (stereo partly drawn)	3%

An excerpt of these results, in markdown:
| SMILES | HSD17B inhib |
| --- | --- |
| CNC(=O)c1ccccc1NC(=O)c1cccc(S(=O)(=O)N2CCC(C)CC2)c1 | ? |
| C[C@@]12CCC(O)C[C@H]1CCc1ccccc12 (stereo partly drawn) | 1% |

Fetched by compound from the entries so far:
SMILES	HSD17B inhib
C[C@@]12CCC(O)C[C@H]1CCc1ccccc12 (stereo partly drawn)	1%
CSc1nc(-c2ccccc2)nc2c1COC(C)(C)C2	5%
CCOc1ccccc1NC(=O)N1CCC(c2nc3ccccc3[nH]2)CC1	-1%
CC(=O)OC1CCC2(C)C3CC(=O)C4(C)C(CC5OC6(CCC(C)CO6)C(C)C54)C3CC[C@H]2C1 (stereo partly drawn)	3%
C=C(C)CN1C(=O)C(O)(CC(=O)c2ccc3c(c2)OCCO3)c2ccccc21 (stereo not drawn)	1%
CNC(=O)c1ccccc1NC(=O)c1cccc(S(=O)(=O)N2CCC(C)CC2)c1	?

Next entries follow:
SMILES	HSD17B inhib
O=C(CSc1nnc(-c2cccnc2)n1Cc1ccccc1)NCc1ccco1	-21%
C[N+]12CCC(CC1)C(OC(=O)C(O)(c1ccccc1)c1ccccc1)C2 (stereo not drawn)	-3%
O=C(CSc1nc2ccc([N+](=O)[O-])cc2s1)c1ccc2ccccc2c1	2%[11.4 µM]
COC(=O)c1ccc(-c2ccc(C(=O)N3CCCN(C)CC3)cc2)cc1	11%
COc1cc(C2Nc3cc(Cl)c(S(N)(=O)=O)cc3S(=O)(=O)N2)cc(OC)c1OC (stereo not drawn)	1%
CCOCCc1nnc(NC(=O)c2cc(OC)c(OC)c(OC)c2)s1	-2%
O=C(Cn1cccc1C(=O)c1ccccc1)NCc1cccnc1	-5%
Cc1cc(NS(=O)(=O)c2ccc(Cl)cc2)nn1CC(=O)NCc1ccco1	-8%
COc1ccc2c(C)cc(=O)oc2c1C	25µM*
CCn1c(NCc2ccc(N(C)C)cc2)nc2ccccc21	-5%
CCOc1c(Cl)cc(C(=O)NCCN2CCCCC2)cc1Cl	?
CCCCNC(=O)CC(NS(=O)(=O)c1ccc(C)cc1)c1ccco1 (stereo not drawn)	-4%
Cc1ccc(-c2noc(C3CCCN(C(=O)c4ccc(F)cc4F)C3)n2)cc1 (stereo not drawn)	-14%
Cc1c(S(=O)(=O)Nc2cc(Cl)ccc2Cl)c(=O)n(C)c(=O)n1C	3%
COc1ccc(CC(=O)NC2CCN(CC(=O)N3CCCc4ccccc43)CC2)cc1OC	-3%
Cc1ccc2c(COn3nnc4ccc(S(=O)(=O)N(C)C)cc43)cc(=O)oc2c1C	2%
CC(=O)O[C@H]1CC[C@@]2(C)C(=CC[C@@H]3[C@@H]4CC[C@H](c5cc(C(F)(F)F)n(C(C)=O)n5)[C@]4(C)CC[C@@H]32)C1	14%[11.4 µM]
O=C(O)CCC1COc2ccccc2O1 (stereo not drawn)	-5%
O=S(=O)(c1ccc(OCC(O)CN2CCN(c3ccc(F)cc3)CC2)cc1)N1CCOCC1 (stereo not drawn)	10%
Cn1cccc1C(=O)N1CCC[C@@]2(CCN(Cc3nccs3)C2)C1	10%
FC(F)(F)c1ccccc1-c1ccc2ncnc(NC3CCNCC3)c2c1	0%
Cc1nc2cc(N3CCCCC3)c(NC(=O)c3cccnc3)cc2c(=O)n1Cc1ccccc1	?
Cn1ccnc1SCC(=O)c1cc2ccccc2o1	-6%
CC(=NCc1cccnc1)C1=C(O)c2ccccc2C1=O	-3%
COC(=O)CC1Oc2ccccc2N(Cc2ccccc2)C1=O (stereo not drawn)	3%
O=C(CSc1ncn[nH]1)Nc1nnc(-c2ccccc2)s1	-4%

Not all compounds are listed; rates above refer to the full screens.
